Hsc70 ATP site = small molecules displacing fluorescent ligand from Hsc70 – biochemical, fluorescence polarization, primary screen (AID 568); Hsc70 fluorescence polarization, probe displacement; higher % means a stronger effect; strong numbers were not always called active; one-dose displacement, % at 20 µM; IC50 in µM for titrated hits; 83,000 tested, under 10 active;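 active means displacement above 50% without optical interference and an IC50 on retest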;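 further: ATPase domain with a fluorescein-tagged ATP probe; 0% = vehicle and 100% = excess ADP; read after one hour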
MT1-MMP promoter = MT1-MMP gene expression reporter suppression – cell-based, luciferase reporter, luminescence (AID 618); 87,000 compounds, 0.62% hits; MT1-MMP promoter luciferase reporter cells, luminescence; calls from a first round at 10 µM; hits with a dose series show EC50 in µM;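 active means over half of the reporter light lost at 10 µM or EC50 under 50 µM; inactive means the rest and hits that failed the dose series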;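 further: actives suppress MT1-MMP promoter-driven transcription so potencies describe inhibitors; HT1080 fibrosarcoma cells; overnight exposure; toxic or luciferase-blocking compounds were not removed from the actives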
WNV protease inh = WNV NS2B-NS3 proteinase inhibition; P06935; 65,000 compounds, 0.18% hits; z-score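 (tested at a level between 10 and 100 µM)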; WNV NS2B-NS3 protease, fluorogenic substrate Ex360/Em465; hits give low values;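 active means z-score at -3 or under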;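 further: score is relative to mean and spread of the compound wells of a plate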
Target sequence (P06935 1371-1501 limits assumed): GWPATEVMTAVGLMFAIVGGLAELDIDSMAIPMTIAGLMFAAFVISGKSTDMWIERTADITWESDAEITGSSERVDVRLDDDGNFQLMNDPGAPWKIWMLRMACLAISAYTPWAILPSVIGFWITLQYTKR
Target sequence (P06935 1502-1679 limits assumed): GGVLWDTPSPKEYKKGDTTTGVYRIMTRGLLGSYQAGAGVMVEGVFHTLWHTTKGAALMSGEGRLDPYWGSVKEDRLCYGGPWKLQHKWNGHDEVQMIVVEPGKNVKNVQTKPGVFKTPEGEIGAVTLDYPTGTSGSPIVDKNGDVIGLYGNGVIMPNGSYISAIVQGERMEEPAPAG
Active calls of the source: *; i = inactive; nt = no result given; & = joins results of further samples. These rows are one share of the data; count on the stated rates, not on these rows.

SMILES	Hsc70 ATP site	MT1-MMP promoter	WNV protease inh
Cc1ccc(-n2ncc3c(=O)n(CC(=O)Nc4cccc(Cl)c4)cnc32)cc1C	-2.0%	i	-0.89
Cc1nn(-c2ccccc2)c(C)c1C(=O)OCC(=O)c1c(N)n(CC(C)C)c(=O)n(C)c1=O	20%	i	0.03
O=C(Nc1cc(Cl)ccc1O)c1cc2n(n1)C(C(F)(F)F)CC(c1ccc3c(c1)OCO3)N2 (stereo unspecified)	-8.5%	i	-0.42
Cc1ccc(C(=O)c2cc3c(cc2N)OCCO3)cc1	1.2%	i	-0.69
CCCCC(=O)Nc1nnc(SCC(=O)N2CCN(c3ccccc3OC)CC2)s1	7.9%	i	-0.27
Cc1nc2sc3c(c2c2nnc(SCC(=O)NCc4ccco4)n12)CCCC3	0.5%	i	0.05
Cc1cccc2cc(C(c3nnnn3CC3CCCO3)N3CCCC4(CCCCC4)C3)c(=O)[nH]c12 (stereo unspecified)	-9.6%	i	0.14
COc1cccc(CN2CCN(c3ncccn3)CC2)c1	-2.1%	i	-0.11
Cc1ccc(N2C(=O)CSC2c2c(F)cccc2Cl)cc1 (stereo unspecified)	-4.5%	i	nt
CCCC(=O)Nc1ccc(Cl)c(NC(=O)c2ccco2)c1	2.8%	i	0.88
NC(=O)C1CCN(C(=O)c2cc3ccccn3n2)CC1	0.4%	i	-0.87
COc1ccc2[nH]c(C)c(C(=O)CN3CCN(C(=O)c4ccco4)CC3)c2c1	5.7%	i	0.08
O=C(O)CN1C(=O)c2ccc(Oc3cccc4c3C(=O)N(CC(=O)O)C4=O)cc2C1=O	-0.4%	i	nt
COc1ccc(Cn2nnnc2C(c2ccncc2)N2CCOCC2)cc1 (stereo unspecified)	-0.3%	i	-0.66
COc1ccc(-c2noc(CSc3nnc(Cc4ccccc4)n3-c3cccc(C)c3)n2)cc1OC	-4.8%	i	-2.7
COc1ccc(-c2cc(C(F)(F)F)n3nc(C(=O)NCc4ccco4)c(Cl)c3n2)cc1	1.3%	i	nt
Cc1ccccc1Nc1nc(N)nc(CN2C(=O)NC3(CCCCC3C)C2=O)n1 (stereo unspecified)	2.7%	i	-0.4
Nc1ccc(S(=O)(=O)NC(=O)c2ccccc2)cc1	0.1%	i	-0.03
COc1ccc(C2CC(=O)C(C=NCCN3CCN(C(C)=O)CC3)=C(O)C2)cc1 (stereo unspecified)	1.3%	i	nt
CCOc1ccccc1N(CC(=O)NCC1CCCO1)C(=O)CCC(=O)Nc1ccccn1 (stereo unspecified)	-10%	i	0.68
CCN(CC)c1ccc(NC(=O)c2ccc(Br)o2)c(C)c1	5.7%	i	-0.16
CC1=C(C(N)=O)C(c2ccncc2)n2nc(-c3ccccc3Cl)nc2N1 (stereo unspecified)	3.8%	i	-0.35
O=C(c1cccc(F)c1)N1CCN(c2cccc(C(F)(F)F)c2)CC1	-3.4%	i	-0.28
COC(=O)[C@H](CCSC)NC(=O)Nc1cc(C)ccc1C	-0.2%	i	0.11
COc1ccc(NC(=O)C2CCN(S(=O)(=O)c3cccc4cccnc34)CC2)cc1	2.6%	i	-1.1
SMILES	Hsc70 ATP site	MT1-MMP promoter	WNV protease inh
Cc1cccc(N2CCN(C(=O)Cn3cnc4c3c(=O)n(C)c(=O)n4C)CC2)c1C	3.2%	i	nt
O=C1[C@@H]2C(Cc3ccc(O)cc3)NC3(C(=O)Nc4ccc(F)cc43)[C@@H]2C(=O)N1c1ccc(F)cc1 (stereo partly specified)	-4.8%	i	-0.66
Cc1ccc(NC(=O)c2cc(NC(=O)CCC(=O)O)ccc2N2CCCCC2)cc1	4.1%	i	nt
Cc1ccc(C(=O)CSc2nc3cc(S(=O)(=O)N4CCOCC4)ccc3o2)cc1	-8.0%	i	-0.57
CC(=O)Nc1ccc(NC2=Nc3ccccc3N3C2=Nc2c(c(C)nn2-c2ccccc2)C3c2ccccc2)cc1 (stereo unspecified)	16%	i	nt
CC(C)(C)c1ccccc1OCC(=O)Nc1ncn[nH]1	0.0%	i	-0.82
CCN(CC)C(=O)N1CCN(S(=O)(=O)c2ccc(C)cc2)CC1	-0.6%	i	nt
CCOCCCNC(=O)CN1CCN(Cc2ccccc2C)C1=O	2.6%	i	0.9
CCCn1c(=O)c(C(=O)NCc2ccccn2)c(O)c2ccccc21	5.7%	i	0.35
Cn1c(=O)c2c(SCc3ccccn3)nc(-c3ccccc3)nc2n(C)c1=O	-5.1%	i	0.37
CCC(C)(C)NC(=O)CN(C(=O)CCC(=O)Nc1cc(C)ccn1)c1ccc2c(c1)OCO2	-5.2%	i	-1.5
Cc1cc(NS(=O)(=O)c2ccc(NC(=O)CN3C(=O)c4ccccc4C3=O)cc2)nc(C)n1	6.8%	i	-0.97
Cc1cccc(CCNC(=O)C2CCN(S(=O)(=O)c3c(C)noc3C)CC2)c1	-0.4%	i	nt
CCOC(=O)c1ccc2[nH]c(C)c(CN3CCN(C)CC3)c(=O)c2c1	4.6%	i	-0.56
Cc1ccc(-c2ccc(/C=N/N=C3/NC(=O)C(CC(=O)O)S3)o2)c([N+](=O)[O-])c1 (stereo unspecified)	0.7%	i	nt
CC(=O)N(Cc1ccc2c(c1)OCO2)C1CC(=O)N(CCc2ccccc2)C1=O (stereo unspecified)	4.7%	i	-1.1
CCc1ccc(-c2ccc(C(=O)O)cc2)nc1	3.1%	i	-0.49
COCC(C)NC(=O)c1cc(-c2ccc(OC)c(OC)c2)on1 (stereo unspecified)	2.8%	i	1.1
Cc1nnc(NC(=O)c2ccncc2)s1	0.7%	i	nt
CSC1=NC(NCCCO)c2c(sc3c2CC(C)(C)OC3)N1 (stereo unspecified)	4.8%	i	-1.5
CCOc1ccccc1-n1c(N)c(C(N)=O)sc1=S	1.1%	i	nt
COc1ccc(OCCSc2nnc(C)n2-c2ccccc2)cc1	-2.5%	i	nt
Cc1cccc(Nc2nc(N)nc(CN3CCN(c4ccc(F)cc4)CC3)n2)c1	-0.6%	i	-0.2
Cc1nn(Cc2ccc(Cl)c(Cl)c2)c(C)c1NC(=O)c1noc2c1CCCCC2	1.7%	i	-1
CCOC(=O)Cn1c(=O)c2c(nc(Br)n2Cc2ccc(Cl)cc2)n(C)c1=O	-3.5%	i	-1

Three compounds out of the list, arranged by heavy-atom count, falling.
SMILES	Hsc70 ATP site	MT1-MMP promoter	WNV protease inh
CCOC(=O)Cn1c(=O)c2c(nc(Br)n2Cc2ccc(Cl)cc2)n(C)c1=O	-3.5%	i	-1
COc1ccc(OCCSc2nnc(C)n2-c2ccccc2)cc1	-2.5%	i	nt
CC(C)(C)c1ccccc1OCC(=O)Nc1ncn[nH]1	0.0%	i	-0.82

Part of the list above, reduced to WNV protease inh and Hsc70 ATP site:
molecule,WNV protease inh,Hsc70 ATP site
CCOc1ccccc1-n1c(N)c(C(N)=O)sc1=S,nt,1.1%
COc1ccc(OCCSc2nnc(C)n2-c2ccccc2)cc1,nt,-2.5%

Returning to the listing, starting 3 compounds before the break.
SMILES	Hsc70 ATP site	MT1-MMP promoter	WNV protease inh
Cc1cccc(Nc2nc(N)nc(CN3CCN(c4ccc(F)cc4)CC3)n2)c1	-0.6%	i	-0.2
Cc1nn(Cc2ccc(Cl)c(Cl)c2)c(C)c1NC(=O)c1noc2c1CCCCC2	1.7%	i	-1
CCOC(=O)Cn1c(=O)c2c(nc(Br)n2Cc2ccc(Cl)cc2)n(C)c1=O	-3.5%	i	-1
N#CC1=C(N)Oc2n[nH]c(-c3ccccc3)c2C12C(=O)Nc1ccccc12 (stereo unspecified)	9.0%	i	1.8
Cc1nn2c3c(cnc2c1-c1ccc(Cl)cc1)C(=O)CC(c1ccco1)C3 (stereo unspecified)	-1.7%	i	-1.2
CC(C)(C)c1cnnn1-c1ccc(C(=O)CCl)cc1	-0.8%	i	nt
Cc1cc(C)cc(N2C(=O)CSC2c2cccs2)c1 (stereo unspecified)	0.8%	i	0.2
Cc1ccc(-c2cc(C(=O)Nc3cnn(C45CC6CC(CC(C6)C4)C5)c3)no2)cc1	0.0%	i	0.95
O=C(O)CCCNS(=O)(=O)c1ccc2ccccc2c1	1.0%	i	0.52
Cc1occc1C(=O)Nc1nnc(-c2ccncc2)s1	7.1%	i	-0.49
CCOc1ccc2[nH]cc(C(=O)N3CCN(C4CCCCC4)CC3)c(=O)c2c1	-2.5%	i	nt
CCOC(=O)C1CCN(c2cc(C)nc3cc(-c4cccc(F)c4)nn23)CC1	0.9%	i	0.31
COc1ccc(C(C[N+](=O)[O-])c2c(-c3ccccc3)cc3ccccn23)cc1OC (stereo unspecified)	2.6%	i	nt
CC(C)(C)c1csc(NC2=NS(=O)(=O)c3ccccc32)n1	-4.1%	i	-0.12
Cc1cc(-c2ccccc2)nc2cc(C(=O)NCCCn3ccnc3)nn12	-0.8%	i	-0.19
COc1ccc(CN(C)C(=O)COC(=O)c2ccc3c(c2)OCO3)cc1OC	-2.2%	i	nt
N#CCc1nc2c3c4c(sc3ncn2n1)CCCC4	-9.3%	i	-0.27
COc1ccc(-c2c(C)n([O-])c3c([n+]2=O)CCCC3)cc1	4.1%	i	nt
O=C(CCC(=O)Nc1ccc(Oc2ccccc2)cc1)NCCO	-1.8%	i	-0.28
Cc1ccc(S(=O)(=O)Cc2ccc(C(=O)N3CCN(c4cc(C)ccc4C)CC3)o2)cc1	-2.2%	i	0.27
CCn1nnnc1SCC(=O)Nc1cc(C)on1	-0.2%	i	nt
Cc1cc(C)n(-c2nc3ccccc3c(=O)n2OCc2ccc(Cl)cc2)n1	-5.7%	i	nt
c1ccc(CCCc2nc(-c3ccccn3)no2)cc1	-2.2%	i	-0.39
CCOC(=O)C1=C(c2ccccc2)N2CCN=C2S1	4.1%	i	-0.17
CN1C(=O)C2(c3ccccc31)N(C)CC(c1ccccc1)C21SC(=S)N(Cc2ccco2)C1=O (stereo unspecified)	1.6%	i	nt
COc1cc(C2C3=C(CC(c4ccco4)CC3=O)Nc3ccccc3N2C(C)=O)cc(OC)c1OC (stereo unspecified)	6.9%	i	1.2
COc1cc2nc(NC(=O)c3ccccc3)[nH]c(=O)c2cc1OC	5.8%	i	-0.03
O=C(CN1C(=O)C2C3C=CC(C3)C2C1=O)N1CCc2ccccc2C1 (stereo unspecified)	1.0%	i	-1.6
SMILES	Hsc70 ATP site	MT1-MMP promoter	WNV protease inh
O=C(COc1ccc(Cl)cc1Cl)OCn1nnc2ccccc2c1=O	0.4%	i	nt
CCCCS(=O)(=O)CC(COc1ccccc1)OC(=O)c1ccccc1 (stereo unspecified)	1.3%	i	nt
CCC1CCCCN1CCNC(=O)c1[nH]c(C)c(C(C)=O)c1C (stereo unspecified)	-4.4%	i	0.04
O=C(O)Cn1c(O)c(C=Nc2ccccc2)sc1=S	-3.6%&-6.4%	i	1.5
CC1CCC(N2CC(=O)N(Cc3ccc4c(c3)OCO4)C(c3ccc(F)cc3)C2=O)CC1 (stereo unspecified)	-7.2%	i	nt
Cc1cccc(NC(=O)CSc2ncnc3c2oc2ccccc23)c1	-0.8%	i	-0.28
O=C(CN(c1ccc(Cl)cc1)S(=O)(=O)c1ccccc1)N1CCN(c2ccccc2)CC1	-5.7%	i	nt
COc1ccc(C)cc1N(C)C(=O)c1coc(=O)c2ccccc12	-5.7%	i	nt
CC(C)C[C@@H]1NC(=O)N(CCN2CCOCC2)C1=O	2.0%	i	0.99
O=C(Cc1ccc(S(=O)(=O)N2CCOCC2)s1)NCC1CCCCC1	-3.7%	i	-1.2
Cn1c(=O)[nH]c(=O)c2c1nc(CN1CCN(c3ccccc3F)CC1)n2CCCc1ccccc1	-2.4%	i	-0.26
Oc1ccc(-c2csc(Nc3cccnc3)n2)cc1	-3.3%	i	-1.1
O=C(CCCC(=O)N(CC(=O)NC1CCCC1)Cc1ccc2c(c1)OCO2)Nc1ccccn1	-7.1%	i	-0.1
Cc1ccccc1Nc1nc(N)nc(CSc2nnc(-c3ccccc3)n2C)n1	-0.2%	i	nt
CCOC(=O)C1CCN(C(=O)Nc2ccc3nccnc3c2)CC1	-0.5%	i	nt
COc1cccc(C2CC(c3ccc(C)cc3)n3ncnc3N2)c1 (stereo unspecified)	-2.2%	i	0.74
[O-][n+]1c2c(nn1-c1ccccc1Cl)-c1nonc1CC2	3.1%	i	-0.92
NC(=O)c1ccc(-n2nnnc2SCC(=O)Nc2ccc(N3CCOCC3)c(Cl)c2)cc1	6.4%	i	0.14
Cc1c(O)cc2n(c1=O)-c1ccc(Cl)cc1C2(C)C	1.3%	i	nt
CCCc1[nH]nc2c1C1(C(=O)N(CC)c3ccccc31)C(C#N)=C(N)O2 (stereo unspecified)	127%	i	-1.4
C=CCn1c(C)cc(C(=O)CSc2ccc(NC(C)=O)cc2)c1C	2.5%	2.4µM*	nt
CCn1c(N)c(C(=O)NCCCOC)sc1=S	-8.9%	i	-0.04
CCc1ccccc1NS(=O)(=O)c1ccc(SC)cc1	3.4%	i	-0.26
O=C(COc1ccc(S(=O)(=O)N2CCCC2)cc1)NCCC1=CCCCC1	9.0%	i	0.3
O=c1[nH]c(SCc2ccccc2)nnc1-c1ccccc1	0.7%	i	nt
COc1ccc(C2C3=C(CC(C)(C)CC3=O)Oc3ncn(Cc4ccco4)c(=N)c32)cc1 (stereo unspecified)	-4.3%	i	-0.26
COc1ccc(-c2ccc(-c3noc(-c4ccco4)n3)c(OC)n2)cc1	-58%	i	-0.72
CCSc1nnc(C)n1-c1ccc(C(=O)O)cc1	-0.6%	i	-0.28

From PubChem
